Screens as filed in PubChem.
Bst PK mod: alters activity of Bacillus stearothermophilus pyruvate kinase; partly purified Bacillus stearothermophilus pyruvate kinase, luminescence ATP production; ribose 5-phosphate activator present at AC10; Potency, µM; actives 1.2% (n = 51,000); AID 361; in the data active means potency below about 11 µM; inconclusive means mostly about 12 µM to 25 µM; inactive means weaker than that;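 the screen sought inhibitors and activators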;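 also: potency is read from the fitted curve at half-maximal effect; scaled between full activation by ribose 5 phosphate and full inhibition by luteolin; about four in five hits inhibit and the cells do not say which; series up to 57 µM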
TsaE inh: displaces an ADP probe from E. coli YjeE (TsaE). P0AF67. purified YjeE, fluorescence polarisation of a bound ADP probe. Potency, µM. actives 0.05% (n = 71,000); active = well fitted falling curve; inconclusive = weaker or top-dose-only fall, or a rising curve; inactive = flat or poorly fitted curve;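 also: top concentration of the series not given in the record; excess ADP was the control for the full effect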
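Fluorescence polarization of a BODIPY Texas Red–ADP probe (2 uM) bound to purified YjeE (10 uM) was read after 15 min room-temperature incubation with compounds. Loss of polarization marks inhibitors; ADP serves as titrated control.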
An asterisk follows results filed as active; i = inactive; nt = no result given.

A first look (four entries):
Bst PK mod | TsaE inh | mol
nt | i | Clc1ccc(OCc2nc(-c3ccccn3)no2)c(Br)c1
nt | i | Cc1c(NC(=O)c2ccco2)cccc1-c1nc2cccnc2s1
>57 | i | CCN(CC)CCOc1ncnc2c1oc1ccccc12
nt | i | Cc1nc(C)c(C(=O)Nc2cccc(C)c2C)o1

The list itself (from the top)
Bst PK mod | TsaE inh | mol
nt | i | Clc1ccc(OCc2nc(-c3ccccn3)no2)c(Br)c1
nt | i | Cc1c(NC(=O)c2ccco2)cccc1-c1nc2cccnc2s1
>57 | i | CCN(CC)CCOc1ncnc2c1oc1ccccc12
nt | i | Cc1nc(C)c(C(=O)Nc2cccc(C)c2C)o1
nt | i | CCOc1ccc(NC(=O)CSc2nnc(Cn3c(=O)sc4ccccc43)n2C)cc1
>57 | i | O=C(Nc1nccs1)NC1CCCCC1
nt | i | O=C1CCCCCN1Cc1nnc(SCc2nc3ccccc3s2)n1-c1ccccn1
>57 | i | CCC(COC(=O)Nc1cccc(C)c1C)NC(=O)OCC(C)C (stereo not drawn)
>57 | i | Cc1ccc(C(=O)C2=C(O)C(=O)N(CCN(C)C)C2c2ccccn2)o1 (stereo not drawn)
>57 | i | O=C(c1ccc(Cn2c(=O)[nH]c3ccccc3c2=O)cc1)N1CCN(c2ccc(F)cc2)CC1
>57 | i | O=C(O)C(CC(=O)N1CCOCC1)NCc1ccccc1 (stereo not drawn)
>57 | i | OC(CN1CCOCC1)C12CC3CC(CC(C3)C1)C2 (stereo not drawn)
nt | i | Cc1nn(-c2ccccc2)c2sc(C(=O)N3CCOCC3)cc12
>57 | i | Cc1ccc(C)c(OCC(=O)Nc2ccc3c(c2)OCO3)c1C
>57 | i | Cn1c(-c2ccc(F)cc2)cnc1SCC(=O)Nc1ccccc1N1CCOCC1
>57 | i | COC(=O)Nc1nc2c(C)cccc2s1
>57 | i | COCCn1nnnc1C(C(C)C)N(Cc1ccccc1)Cc1cc2cc(OC)ccc2[nH]c1=O (stereo not drawn)
>57 | i | COc1ccc(OC)c(NC(=O)CSc2nc3c(c(=O)n(C)c(=O)n3C)n2C)c1
nt | i | Nc1cccc(N)c1
>57 | i | CCn1nnnc1NCc1cccn1C
>11 | nt | Cc1ccc(SCc2nnc(N)s2)cc1
>57 | i | O=C(NCC1CCCO1)c1ccc(CS(=O)(=O)Cc2ccc(F)cc2)o1 (stereo not drawn)
nt | i | CCCCSc1nc(N)c(NC(=O)c2ccco2)c(=O)[nH]1
>57 | i | CCN1CCN(C(c2ccc(OC)c(OC)c2)c2nnnn2C(C)(C)C)CC1 (stereo not drawn)
>57 | i | CC1CCCCC1NC(=O)Cn1c(CN2CCCCC2)nc2ccccc2c1=O (stereo not drawn)
>57 | i | CCc1c(C)sc(NC(=O)c2ccco2)c1C(=O)N1CCOCC1
>57 | i | C=CCn1c(SCC(=O)Nc2nnc(CC)s2)nnc1-c1ccco1
nt | i | CCOc1cc(CN2CCN(c3ccc(C(C)=O)cc3)CC2)ccc1OC
i | nt | COc1ccc(Nc2cc(C)nc3ccccc23)cc1
>57 | i | CCOc1ccccc1OCC(=O)Nc1ccc(S(=O)(=O)N(C)C)cc1
nt | i | CCOC(=O)Nc1ccc2c(c1)N(C(=O)N(CC)CC)c1ccccc1CC2
i | i | COc1ccc2oc(C(=O)c3ccccc3)c(NC(=O)CN3CCN(C)CC3)c2c1
i | nt | O=c1c(C=NCCCn2ccnc2)c(-c2ccccc2)[nH]n1-c1nc2ccccc2s1
>57 | i | CCNc1nc(NCC)nc(N(C)n2cnnc2)n1
nt | i | Clc1ccc(-c2nc(-c3ccccn3)no2)cc1Cl
>57 | i | CC(=O)NC(Cc1ccccc1)C(=O)NC1CCN(C(=O)c2cnccn2)CC1 (stereo not drawn)
nt | i | Fc1cccc(Nc2cc(-n3cccn3)ncn2)c1
nt | i | O=C(Nc1ccccc1)c1ccccc1O
nt | i | CC(C)c1ccc(NC(=O)C2CCCN(S(=O)(=O)c3cnc[nH]3)C2)cc1 (stereo not drawn)
nt | i | COc1ccccc1-c1nc(Nc2ccncc2)c2ccccc2n1
>57 | i | COCCCNC(=O)CSc1nc2ccc(N3CCOCC3)cc2c(=O)n1CCc1ccccc1
>57 | i | O=C(O)Cn1c(C(F)(F)F)nc2ccccc21
nt | i | Nc1ncnc2nn([C@H]3O[C@@H](CO)[C@@H](O)[C@H]3O)nc12
>57 | i | NC(=O)C1CCCN(C(=O)NC2CCCCC2)C1 (stereo not drawn)
8.6* | i | O=S(=O)(Nc1ccc2c(c1)OCCO2)c1cccc2nsnc12
nt | i | C[Si](C)(C)Cl
>57 | i | CCCn1c(=N)n(CC(=O)C(C)(C)C)c2ccccc21
>57 | i | C/C(Cl)=C/Cn1c(NCCN(C)C)nc2c1c(=O)n(C)c(=O)n2C
>57 | i | Clc1ccc(-c2nnc(SCc3cn4ccsc4n3)n2CC2CCCO2)cc1 (stereo not drawn)
nt | i | COc1ccc(CN[C@H](C)C(=O)O)cc1
>57 | i | CC(=O)NC(CC(=O)Nc1ccc(S(=O)(=O)N2CCCC2)cc1)c1ccccc1 (stereo not drawn)
nt | i | O=C(O)CNc1ccc(C(=O)O)cc1
>57 | i | COCCNC(=O)CN1CCC(NC(=O)Nc2ccccc2)CC1
>57 | i | O=C(CSc1ncn(-c2ccccc2)n1)N1CCN(c2ccccc2)CC1
nt | i | Cc1ccc(S(=O)(=O)NC(=O)Nc2ncn[nH]2)cc1
nt | i | CC(C)CC(/C(O)=C(\C#N)c1nc2ccccc2[nH]1)N1C(=O)c2ccccc2C1=O (stereo not drawn)

Next section:
Bst PK mod | TsaE inh | mol
>57 | i | Cc1noc(NS(=O)(=O)c2ccc(NC(=O)c3ccc(Br)o3)cc2)c1C
nt | i | NC(=O)CSc1nc2c(sc3ccccc32)c(=O)n1CCCN1CCOCC1
>57 | i | COc1ccc(C2C3=C(CCCC3=O)Nc3nc(C(F)(F)F)nn32)cc1OC (stereo not drawn)
>26 | nt | CC(C)Cc1nc(N2CCOCC2)c(C#N)c2c1CCC2
>11 | i | O=C(NC1CCCC1)c1cc(-c2cccs2)on1
>57 | i | CCOC(=O)CC1C(=O)NCCN1C(=O)COc1ccc(Br)cc1C (stereo not drawn)
>57 | i | Cc1sc2nc(CN(Cc3cccs3)C(=O)NC3CCCCC3)[nH]c(=O)c2c1C
>57 | i | CC(=O)c1ccccc1Oc1nc(CN2CCOCC2)nc2scc(-c3cccs3)c12
nt | i | O=C(c1cc2ccccc2o1)N1CCN=C1SCc1cccc(F)c1
>57 | i | Fc1cccc2sc(N3CCCCC3)nc12
>57 | i | O=C1CCCC2=C1C(c1ccncc1)c1c(nc(SCc3ccccc3Cl)[nH]c1=O)N2 (stereo not drawn)
>57 | i | CCOC(=O)c1sc2nc(C)n(CC(=O)NCC3CCCO3)c(=O)c2c1C (stereo not drawn)
>57 | i | Cc1noc(C)c1COC(=O)C1(c2cccc(F)c2)CCCC1
>57 | i | O=C(CCn1c(=O)c2ccccc2n(Cc2cccnc2)c1=O)NCc1ccc2c(c1)OCO2
>57 | i | N#CC1=C(N)Oc2ccccc2C12C(=O)Nc1n[nH]c(-c3ccccc3)c12 (stereo not drawn)
>57 | i | COC(=O)c1ccccc1NC(=O)CN(c1ccccc1)S(=O)(=O)N(C)C
>57 | i | COc1ccc(C2C(C(=O)N3CCCC3)c3cc(OC)c(OC)cc3C(=O)N2C)cc1OC (stereo not drawn)
>57 | i | CC(O)CN(Cc1cccc(Cl)c1)CC(C)O (stereo not drawn)
>57 | i | Cc1c(CNC(=O)c2cnn3c2NC(c2ccc(Br)cc2)CC3C(F)(F)F)cnn1C (stereo not drawn)
>57 | i | CCn1c(=O)[nH]c2cc(C(=O)N3CCN(c4ccccc4)CC3)ccc2c1=O
nt | i | CN(C)c1ccc(S(=O)(=O)c2ccc(Cl)cc2)cc1
>57 | i | COc1ccc(C(=O)Nc2oc(-c3ccccc3)c(-c3ccccc3)c2C#N)cc1OC
5.8* | i | CCCOc1ccc(-c2nc(C#N)c(N3CCN(CC)CC3)o2)cc1
>57 | i | CCCOc1cccc(C2/C(=C(/O)c3ccncc3)C(=O)C(=O)N2CCCN(C)C)c1 (stereo not drawn)
>57 | i | Cc1ccc(S(=O)(=O)N2CCOCC2)cc1C(=O)OCC(=O)N1CCc2ccccc2C1
nt | i | CC(C)=CCC/C(C)=C/CO
>57 | i | CC(=O)Nc1ccccc1C(=O)N1CC(C)OC(C)C1 (stereo not drawn)
>26 | nt | Cc1cc(C)nc(N(C#N)S(=O)(=O)c2ccccc2Cl)n1
>57 | i | CCC(=O)N1CCc2cc(S(=O)(=O)CCC(=O)Nc3c(C)n(C)n(-c4ccccc4)c3=O)ccc21
nt | i | CCN=C1Cn2c(nc3scc(-c4ccccc4)c3c2=O)CN1CC
nt | i | CCCCCCCCCCCCC/C=C\[C@@H](O)[C@@H](N)CO
nt | i | CC(=N)C1=C(O)CC(C)(C)CC1=O
nt | i | Nc1ccc(S(=O)(=O)NCc2nccs2)cc1
>57 | i | O=C1CC(N2CCN(S(=O)(=O)c3ccc(Cl)cc3)CC2)C(=O)N1CCc1ccccc1 (stereo not drawn)
>57 | i | C/C=C/Cn1c(N2CCCCCC2)nc2c1c(=O)[nH]c(=O)n2C
nt | i | CC(=O)NC1(C2CCCCC2=O)CCCCC1 (stereo not drawn)
>57 | i | CC(=O)NC(Cc1c[nH]c2ccccc12)C(=O)Nc1ccc2c(c1)OCO2 (stereo not drawn)
i | i | COc1ccc(NC(=O)Nc2nccs2)cc1
>57 | i | CC(=O)Nc1ccc(S(=O)(=O)N2CCSC2c2ccc(Cl)cc2)cc1 (stereo not drawn)
nt | i | Cc1cccc(CNc2ncnc3ccc(-c4ccccc4CN(C)C)cc23)c1
i | i | Cc1cc(=O)[nH]c(S/C=C/c2ccccc2)n1
>57 | i | CC(C)CCN1CC(C(=O)NCc2ccc(F)cc2)CC1=O (stereo not drawn)
>57 | i | CCOc1ccccc1C1C(C(=O)OC)=C(N)OC2=C1C(=O)CCC2 (stereo not drawn)
>57 | i | COc1cccc2cc(C(=O)Nc3cccnc3N3CCOCC3)c(=O)oc12
nt | i | O=c1c(-c2cccs2)nc2cnc(N3CCOCC3)nc2n1CCc1ccccc1
nt | i | Cc1ccc(C(=O)O)cc1
>57 | i | O=C(O)c1cc2cc(Cl)cc(Cl)c2oc1=O
>57 | i | Cc1nnc(SCC(=O)c2ccc(S(=O)(=O)N3CCOCC3)cc2)n1-c1ccccc1

Record cards (already shown). Order of screens: Bst PK mod | TsaE inh
Cc1noc(NS(=O)(=O)c2ccc(NC(=O)c3ccc(Br)o3)cc2)c1C in the list: >57 | i
Cc1cccc(CNc2ncnc3ccc(-c4ccccc4CN(C)C)cc23)c1 in the list: nt | i
Cc1ccc(C)c(OCC(=O)Nc2ccc3c(c2)OCO3)c1C in the list: >57 | i

More results:
Bst PK mod | TsaE inh | mol
>57 | i | COc1ccc(-c2nnn(CC(=O)N(CC(=O)NCCC(C)C)c3ccccc3)n2)cc1OC
>57 | i | O=C(O)C1CC(=O)N(C2CCCCCC2)C1 (stereo not drawn)
nt | i | NC(Cc1ccccc1)=NCC(=O)O
nt | i | COc1ccccc1CNc1ccnc(-c2c(C)noc2C)n1
>57 | i | COc1cc(OC)cc(C(=O)NCc2n[nH]c(=S)n2-c2ccccc2)c1
nt | i | COc1ccc(-c2cn3c(n2)CCC3)cc1
>57 | i | CCOC(=O)N1CCN(C(=O)CN(Cc2ccccc2)S(C)(=O)=O)CC1
nt | i | CC1(C)CO[C@H](CC(=O)O)CN1
>57 | i | CCc1cc(C(=O)N2CCOCC2)c(NC2=NS(=O)(=O)c3ccccc32)s1
nt | i | CN(C)C(=O)c1ccc(-c2nc(Nc3ccc(F)cc3)c3ccccc3n2)cc1
>57 | i | COc1ccc(N2CCN(C(=O)c3ccc(NS(=O)(=O)c4ccccc4)cc3)CC2)cc1
>57 | i | COc1ccc(S(=O)(=O)N2CCN(c3nc4ccccc4nc3-n3nc(C)cc3C)CC2)cc1
>57 | i | O=C(Cn1nc(-c2ccc3c(c2)OCCO3)ccc1=O)Nc1ccc(N2CCOCC2)cc1
>57 | i | CC(C)c1ccc(NC(=O)C(c2ccccc2)N2CCN(C=O)CC2)cc1 (stereo not drawn)
nt | i | Cc1ncsc1CCSc1nc2ccccc2c(=O)n1C
nt | i | O=C(O)c1ccc(N2C(=O)CC(Cc3ccccc3)C2=O)cc1 (stereo not drawn)
>57 | i | CCOC(=O)c1ccccc1NC(=O)Cn1c(-c2nonc2N)nc2ccccc21
>57 | i | Cc1ccccc1-n1c(=O)cc(N2CCC3(CC2)OCCO3)[nH]c1=O
>57 | i | O=c1cc(CSc2nnc(-c3cccs3)n2Cc2ccccc2)nc2sc3ccccc3n12
nt | i | Cc1nc2c(-c3ccccc3)c(C)nn2c(C)c1CCC(=O)O
nt | i | O=C(c1cccc(F)c1)N1CCC[C@@]2(CCN(C(c3ccccc3)c3ccccc3)C2)C1
nt | i | O=C(NCc1ccco1)c1cc(-c2cccnc2)nc2ccc(Cl)cc12
>57 | i | CC1CCN(CCC(=O)Nc2ccc(Br)cc2)CC1
nt | i | Cc1ccccc1NS(=O)(=O)c1cccc(-c2nnc(-c3ccccc3)o2)c1
>57 | i | CCN(CC)S(=O)(=O)c1ccc(NC(=O)CN(c2ccc(OC)cc2OC)S(C)(=O)=O)cc1

A portion of the library; rates above refer to the full screens.
